RanGTP-Imp inh – disruptors of Ran-importin-beta complex formation – biochemical, FRET, CFP-Ran, YFP-importin-beta, homogeneous, primary screen. cell-free CFP-Ran/YFP-importin-beta FRET ratio. inhibition, % (concentration not given with the values). hit rate 1.1% among 300,000;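 active = most replicates above 15%; inconclusive = exactly half above 15%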;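 also: 0% = DMSO wells and 100% = Ran loaded with GDP instead of GTP; wells of about 40 µL received 100 nL stock; the first replicate is given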
Bfl-1 A1 inh – inhibitors of the anti-apoptotic protein A1, read as caspase activation; MEF A1-2A-BIM cells, Caspase-Glo 3/7 luminescence, 3 h; percent of clofoctol response, vehicle zero; caspase activation, % (test concentration not listed); hit rate 0.066% among 330,000;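 active = over half of replicate activation scores above 10%, or exactly half above 10 with the replicate mean above 10; inconclusive = replicate mean below 10 yet half the replicates above 10; inactive = over half of replicates below 10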;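 also: wells of about 30 µL received 50 nL stock; many hits fall short of the cut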
Vif A3G – HIV-1 Vif–A3G interaction blockers – biochemical, TR-FRET, GST-Vif 1-94, biotin-A3G peptide, dose response retest, primary screen (AID 1117319); hit rate 0.57% among 260,000; TR-FRET GST-Vif / biotin-A3G peptide binding; higher % means a stronger effect; test concentration not given here; strong numbers were not always called active; one-dose inhibition, %; IC50 in µM for titrated hits;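 active = above the screen mean plus three standard deviations and confirmed in dose response; inconclusive = results disagree or hit not tested in dose response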;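 also: Vif residues 1-94 fused to GST binding biotinylated APOBEC3G peptide 110-148; 0% = full assay without inhibitor and 100% = GST in place of GST-Vif; retest series ran down from 100 µM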
Calb FLC – affects C. albicans growth with fluconazole | growth inhibition, % (test concentration not listed) | C. albicans CaCi-2 (fluconazole-resistant clinical isolate) + fluconazole, Alamar Blue growth, 48 h | hit rate 0.57% among 300,000;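 active = most replicates above 75%; inconclusive = exactly half above 75%; inactive = most below 75%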;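 also: all wells also contain fluconazole at 8 µg/ml as a sub-toxic cotreatment; 0% = median of DMSO wells and 100% = median of geldanamycin control wells; wells of about 8 µL received 7.5 nL stock; the first replicate is given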
Ecoli rRNA inh – inhibitors of bacterial rRNA selective over humanized ribosomes; GFP signal change (wild-type ribosome), % (test concentration not listed); hit rate 1.6% among 350,000; E. coli WT GFP vs humanized-ribosome RFP mutants, fluorescence, 24 h; active compounds read low; DMSO median 0, no signal -100;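 active = significant combined selectivity score with lowered wild-type GFP, culture density cut under 30%, mutant RFP and density less affected; inactive = any of these conditions unmet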; also: one replicate is shown; some compounds called inactive have numbers as strong as hits
AF4-AF9 inh – blocks AF4 peptide binding to human AF9; AlphaScreen, biotin-AF4 peptide binding to FLAG-AF9; inhibition, % at 10 µM; hit rate 0.47% among 350,000; AID 651704;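 active = every replicate reaching a set inhibition limit, whatever the replicate mean, cut at about 25% in these data; inconclusive = mean inhibition reaches that limit but some replicates miss it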;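 also: 0% = plate neutral control median and 100% = total signal loss; the record names both 10 and 1 µM as test concentration; the first replicate is given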
Target sequence (P42568 whole entry, looked up): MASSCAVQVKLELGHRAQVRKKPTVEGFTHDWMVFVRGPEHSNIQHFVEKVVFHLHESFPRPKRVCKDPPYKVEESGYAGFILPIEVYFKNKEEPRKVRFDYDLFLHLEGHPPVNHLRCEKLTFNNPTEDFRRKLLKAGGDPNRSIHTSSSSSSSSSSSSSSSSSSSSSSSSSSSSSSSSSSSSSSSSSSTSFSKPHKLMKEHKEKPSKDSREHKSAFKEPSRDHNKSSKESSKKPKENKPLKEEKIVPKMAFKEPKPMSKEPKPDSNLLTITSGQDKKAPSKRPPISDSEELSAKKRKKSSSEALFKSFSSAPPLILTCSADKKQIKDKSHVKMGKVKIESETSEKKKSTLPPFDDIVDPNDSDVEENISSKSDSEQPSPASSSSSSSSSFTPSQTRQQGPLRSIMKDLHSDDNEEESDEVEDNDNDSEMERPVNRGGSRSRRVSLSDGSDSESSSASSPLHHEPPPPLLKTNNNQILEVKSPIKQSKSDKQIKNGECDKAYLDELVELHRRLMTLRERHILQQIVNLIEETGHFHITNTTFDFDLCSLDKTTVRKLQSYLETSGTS
T cruzi inh – blocks replication of Trypanosoma cruzi | T. cruzi beta-gal in NIH3T3, luminescence, 90 h | inhibition, % (test concentration not listed) | hit rate 1.4% among 300,000;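 active = mean inhibition across valid replicates above about 55%, limit read from the data; inconclusive = mean below that limit but half or more replicates reach it; inactive = mean below it, under half of replicates reach it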;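 also: signal also drops with host cell toxicity which is not excluded here; 0% = plate median of DMSO wells and 100% = zero luminescence signal; higher percent means less beta-gal luminescence so fewer parasites; stock transfer was 50 nL into about 50 µL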
Beta apoptosis – blocks beta cell apoptosis. INS-1E cytokine-induced death, ATP luminescence, 48 h; percent of positive-control rescue, neutral wells zero. protection from apoptosis, % (no concentration beside the values). hit rate 0.8% among 300,000;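 active = all replicates at 75% or more, or half of them and the mean; inconclusive = half reach 75% but not the mean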;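 also: 0% = cytokine-treated negative control wells and 100% = positive control rescue; higher means more ATP so stronger rescue from cytokine killing; wells of about 40 µL received 100 nL stock; the first replicate is given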
Ecoli rRNA inh OD600 – further read-out of Ecoli rRNA inh, marked with its call; OD600 change, %; measured here: OD600 growth;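 optical density of the mix in the first replicate; 0 = DMSO median and -100 = no signal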
Ecoli rRNA inh RFP – recorded beside Ecoli rRNA inh, whose call it bears; RFP signal change, %; measured here: RFP humanized mutant strains;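 first replicate; 0 = DMSO median and -100 = no signal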
* = called active by the depositor; ? = inconclusive; . = no result given; & = joins results of further samples. A portion of the library (hit frequency here may not be typical).

SMILES	RanGTP-Imp inh	Bfl-1 A1 inh	Vif A3G	Calb FLC	Ecoli rRNA inh	Ecoli rRNA inh OD600	Ecoli rRNA inh RFP	AF4-AF9 inh	T cruzi inh	Beta apoptosis
NC(=O)c1nsc(C(=O)N(Cc2ccco2)C(C(=O)NC2CCCC2)c2ccc(O)cc2)c1N (stereo unspecified)	-1.4	.	.	-1	0	-5	1.1	5.5	-3	.
COC(=O)c1cc(OC)c(OC)cc1NC(=O)c1ccc(C)cc1	-0.1	-0.2	3%	30	.	.	.	.	13	6
COc1ccc(C(CNC(=O)Cc2ccccc2F)N2CCCCC2)cc1 (stereo unspecified)	-1.9	-0.6	25%	-5	11	5	3.5	3.6	8	1
COc1ccc(C2C(C#N)=C(SC)NC3=C2C(=O)CC(C)(C)C3)cc1 (stereo unspecified)	2.9	0.1	9%	8	.	.	.	.	-2	-8
COc1ccccc1CNC(=O)CCCN1C(=O)COc2ccc(C)cc21	8.1	0.1	-2%	15	.	.	.	.	-4	0
CCOc1ccccc1C1CC(=O)NC(SCC(=O)Nc2nccs2)=C1C#N (stereo unspecified)	0.6	-0.3	-3%&18%	14	.	.	.	.	10	-1
O=C(Nc1cccc(Cl)c1Cl)C1CCN(C(=O)c2cccs2)CC1	?	0.5	.	6	-6	-10	1.0	-7.8	-7	4
O=C(/C=C/c1ccc(S(=O)(=O)N2CCOCC2)cc1)NCc1ccccc1	1.3	0.6	13%	-14	3	2	-2.3	-3.2	7	0
O=C1C2C3C=CC([C@@H]2C(=O)N1C1CC1)[C@H]1C(=O)N(C2CC2)C(=O)C31 (stereo partly specified)	?	0.8	-8%	5	.	.	.	.	-9	0
CC(C(=O)NCc1ccco1)n1ccc2cc(S(=O)(=O)N3CCCC3)ccc21 (stereo unspecified)	?	1.9	.	-4	-2	-6	-1.3	2.5	10	-5
CCCCc1nc2cc(C(=O)N3CCCCC3CC(=O)OCC)ccc2o1 (stereo unspecified)	-1.5	-0.9	.	9	3	-4	2.0	-0.2	3	1
Cc1nc2sc(C(c3ccc(Br)cc3)N3CC(C)OC(C)C3)c(O)n2n1 (stereo unspecified)	-0.9	-0.1	-3%	-2	.	.	.	.	-5	0
Cc1ccc(NC2=CC(=O)CC(C)(C)C2)cc1C	1.1	2.4	1%	?	.	.	.	.	23	-2
COc1ccc(Cl)cc1NC(=O)CSc1nc(C)cc(C)n1	-0.3	0.9	-3%	12	-23	-31	-5.7	-8.1	4	-3
O=C(NNC(=O)c1ccccc1Cl)c1ccc2c(=O)n3c(nc2c1)CCC3	.	0.3	.	.	3	-2	-0.2	-5.7	.	-5
CCSc1nnc(NC(=O)CSc2nnc(-c3c[nH]c4ccccc34)n2CC)s1	1.4	-0.4	5%	-8	-7	-16	-0.8	2.3	-2	-3
NS(=O)(=O)c1ccc(CNC(=S)NC2CCCC2)cc1	1.4	0.9	-6%	16	16	14	-1.4	-1.5	-12	-1
CC(C)NC(=O)c1ccccc1NC(=O)/C=C/c1cccc([N+](=O)[O-])c1	-5.3	1.0	-4%	2	.	.	.	.	8	113*
O=C(c1cc2ccccc2o1)N1CCN(c2ccccn2)CC1	3.0	0.0	-4%	46	-1	-2	-2.8	-2.3	-5	-8
O=C(COC(=O)Cc1ccccc1[N+](=O)[O-])NC1CCCC1	-0.1	0.6	-3%	-32	12	12	1.5	-1.7	-22	-5
CC(=O)N(C)c1ccc(NC(=O)COc2ccc(Br)cc2C)cc1	6.0	1.3	-1%	-5	-21	-14	10.0	-79	-4	2
O=C(O)COc1ccccc1/C=N/NC(=O)c1ccc2c(c1)OCCO2	2.2	-0.7	.	-19	15	10	-2.0	-3.0	-15	-6
COc1ccc(C2C(C#N)=C(/N=C/N3CCN(C)CC3)OC3=C2C(=O)CC(C)(C)C3)cc1 (stereo unspecified)	4.0	0.9	-1%	-2	.	.	.	.	8	-1
O=C(NC1CCCCC1)C(c1cccs1)N(C(=O)C(F)(F)F)c1ccccc1 (stereo unspecified)	1.5	1.0	2%	3	.	.	.	.	15	.
CC12CCC(C(=O)NNc3ccc([N+](=O)[O-])cc3)(OC1=O)C2(C)C (stereo unspecified)	3.0	0.1	.	-9	10	8	-2.7	-0.2	-6	3
O=C(CC1(O)C(=O)N(CCc2ccccc2)c2ccccc21)c1ccccn1 (stereo unspecified)	-3.3	0.1	16%	-30	9	8	2.5	1.9	5	-8
COc1ccc(-c2noc(N3CCC(C(=O)N(C)c4ccccc4)CC3)n2)cc1	3.0	-0.3	.	4	-3	-5	5.8	-5.8	28	-5
COc1ccc(C(=O)CNc2ccc3ccccc3c2)cc1	?	.	.	5	1	5	2.4	2.8	2	.
C/C(=N\NS(=O)(=O)c1ccccc1)c1ccccc1	4.6	0.1	.	5	16	8	0.9	-1.3	-13	-4
CC(C)(C)[C@@H]1CCC(=O)N(CC[C@H](Sc2ccccc2)c2ccccc2)CC1	-0.5	-0.1	.	0	3	-7	-1.9	-15	39	25
COc1ccc(N2C(=O)CC(N3CCOCC3)C2=O)cc1 (stereo unspecified)	3.6	0.8	-1%	9	.	.	.	.	-9	-4
COc1cc(C=Nc2ccccc2C(=O)Nc2ccccc2)cc(OC)c1OC	2.4	0.5	0%	1	2	1	0.6	-2.8	4	-7
CC(=O)c1sc(NC(=O)CN2C(=O)NC3(CCCC3)C2=O)nc1-c1ccccc1	-1.0	1.6	.	7	-9	-17	4.8	-0.9	-8	-1
COc1ccc(-c2cc(=O)c3c(O)c(OC)c(O)cc3o2)cc1	6.7	0.1	12%	1	-19	-5	-12	1.2	0	.
CCc1cccc(NC(=O)c2cccc(S(=O)(=O)N3CCN(C)CC3)c2)c1	5.1	1.1	.	-5	-1	-3	1.1	2.0	-12	.
O=C(CSCCO)Nc1ccc(C23CC4CC(CC(C4)C2)C3)cc1	?	-0.5	-2%	-4	.	.	.	.	6	.
COc1cc(C(CC(=O)O)n2cnnn2)ccc1OC(C)C (stereo unspecified)	-0.4	-0.4	3%	13	9	8	-1.3	-2.7	-3	-1
COP(=O)(OC)C(Nc1cc(Cl)cc(Cl)c1)c1cccc(O)c1 (stereo unspecified)	1.0	0.5	-3%	21	-35	-46	-8.1	2.3	-20	-3
CN(C)c1ccc(NC(=O)c2ccc(N3CCOCC3)nc2)cc1	-3.3	-0.6	.	-5	5	12	8.2	8.1	41	3
COc1ccc(Cn2c(C)nc3oc4cc(OC)ccc4c(=O)c3c2=O)cc1	3.2	.	0%	-18	.	.	.	.	-1	.
C/C(N)=C(/C#N)C(=O)COC(=O)c1oc2ccccc2c1COC(C)C	.	1.0	-7%	-2	5	7	1.3	-2.6	.	-11
C=CCNC(=O)C(C)N1c2cccc3cccc(c23)S1(=O)=O (stereo unspecified)	-2.7	-2.0	-1%	-5	11	9	2.3	2.2	-8	-6
O=C(CN1CCN(CCO)CC1)Nc1ccccc1	1.1	0.3	.	-2	.	.	.	.	-15	3
O=C(CSC(=S)N1CCCC1)N1CCN(S(=O)(=O)c2cccc([N+](=O)[O-])c2)CC1	7.6	-0.6	.	5	-5	2	-2.4	2.1	19	0
CC1CCN(CC(=O)Nc2ccccc2Sc2ccccc2)CC1	-2.3	0.5	.	-1	.	.	.	.	26	-4
CCOc1cccc(=O)c2c(C)n(Cc3ccccc3)c(C)c12	1.3	-1.7	.	3	16	12	2.1	-0.3	20	-3
c1csc(-c2nc(-c3ccncc3)no2)c1	-0.3	-5.7	4%	-25	3	-4	-7.6	-9.6	46	-3
CCOC(=O)c1c(NC(C)=O)sc2c1CCN(Cc1ccccc1)C2	87*	0.7	.	2	-6	0	-1.7	0.2	21	-4
Cc1ccnc(Nc2nc(-c3ccc(O)cc3)cs2)c1	-2.8	-1.7	.	33	-29	-22	-4.5	4.8	34	.
CCc1nnc(SCC(=O)Nc2ccc3c(c2)OCO3)o1	-0.6	1.0	-1%	-4	.	.	.	.	0	3
S=c1[nH]nc(-c2ccccc2)c2ccccc12	-0.6	0.3	.	-8	9	5	3.3	2.5	3	-3
Cc1ccc(S(=O)(=O)NCCSc2nnnn2-c2ccccc2)cc1	-0.3	-0.4	6%	-1	-9	-15	1.5	4.3	17	0
CN(C(=S)NC(=O)Cc1ccccc1)c1ccccc1	1.1	-0.3	5%	-9	8	5	1.5	-2.5	-36	-2
Cc1ccc(C(C(=O)Nc2ccc3c(c2)OCO3)N(C)C(=O)/C=C\c2ccc3c(c2)OCO3)cc1 (stereo unspecified)	0.2	-0.2	?	1	.	.	.	.	4	5
C=CCOc1ccc(C(=O)/C=C2/C(=O)Nc3ccccc32)cc1	-3.4	0.8	0%	13	-4	13	1.3	1.9	21	9
CC(C)C[C@H](NC(=O)N1CCn2c1nc1ccccc12)C(=O)NCc1ccc2c(c1)OCO2	0.0	0.2	.	-5	-21	-32	-4.0	2.3	4	-8
CC(C)NC(=O)c1cc2cc(Br)ccc2oc1=O	0.4	0.4	-5%	-4	.	.	.	.	2	-2
Cc1cc[n+](C(C)C(=O)c2ccc(Cl)cc2)cc1 (stereo unspecified)	-1.5	-1.2	2%	0	10	8	1.3	-4.6	-12	0
Nc1ccc(N2CCN(c3ccc(F)cc3)CC2)cc1	1.2	-0.5	.	103*	3	13	-1.3	12	23	14
O=C(CSc1nnc(Cn2nnc(-c3ccccc3)n2)n1-c1ccccc1)Nc1ccc(F)cc1	?	0.8	3%&-15%	21	.	.	.	.	18	-2

Carrying on:
SMILES	RanGTP-Imp inh	Bfl-1 A1 inh	Vif A3G	Calb FLC	Ecoli rRNA inh	Ecoli rRNA inh OD600	Ecoli rRNA inh RFP	AF4-AF9 inh	T cruzi inh	Beta apoptosis
CCCC(=O)Nc1sc2c(c1C(=O)OC)C(C(=O)OC)CC2 (stereo unspecified)	7.6	-0.3	6%	-5	.	.	.	.	3	9
COc1ccccc1CNS(=O)(=O)c1c(C(=O)N2CCCCCC2)c(C)n(C)c1C	8.5	-0.3	1%	-3	0	2	-1.3	-15	4	.
O=C(O)C1CCCN1c1ncnc2ccccc12 (stereo unspecified)	3.0	1.0	?	1	.	.	.	.	-9	4
Cc1c(C(=O)Nc2cc(F)cc(F)c2)cnn1-c1ccccc1	-4.5	-4.7	.	-12	2	0	-2.1	-0.3	6	9
Cc1ccc(S(=O)(=O)N(C)c2ccc(C(=O)Nc3c(C)n(C)n(-c4ccccc4)c3=O)cc2)cc1	2.0	0.6	5%	8	-1	-4	0.7	-1.7	3	-2
CC1CCCCC1NCC#CCOc1ccc(Cl)cc1 (stereo unspecified)	-1.5	1.2	-7%	-12	-57	-77	-10	-1.0	16	-2
Cc1ccccc1-n1c(Cn2c(=O)sc3ccccc32)nnc1SCC(N)=O	2.7	-0.6	-2%	-5	13	10	3.2	-2.9	1	1
Cc1ccc(C(=O)/C=C/Nc2ccccc2C(N)=O)cc1	2.0	0.8	3%	2	.	.	.	.	0	17
COc1ccc2o/c(=N/NC(=S)Nc3ccccc3)c(C(N)=O)cc2c1	?	.	14%	-20	.	.	.	.	1	.
